High-throughput results deposited in PubChem by several laboratories.
UUG fidelity – yeast start codon fidelity modulation. 350,000 tested, 0.13% active. S. cerevisiae UUG-firefly luciferase reporter, luminescence/redox ratio. activity score, % at 18.7 µM;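 active = replicate mean at a twofold rise or more, about +100% in these data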;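 also: firefly luciferase made from a UUG start codon reports start codon fidelity; reporter light over untreated wells divided by growth signal over untreated wells; some hits fall short of that in this replicate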
eIF4H inh – inhibitors of RNA binding by human eIF4H; eIF4H fluorescence polarization binding assay; inhibition, % at 35 µM; 290,000 tested, 0.94% active;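 active = 50% or more with normal probe brightness, or confirmed in later tests; about a fifth of its hits are not listed in these tables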;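 also: calls also rest on retests at 20 µM and on dose response follow-up; 0% = protein and probe with vehicle and 100% = probe without protein; strong numbers were not always called active; many hits fall short of the cut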
PABP FP inh – blocks human PABP binding to poly(A) RNA | P11940 | fluorescence polarization | inhibition, % at 35 µM | 290,000 tested, 1% active | AID 2014;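 active = 50% or more with normal probe brightness, or confirmed in later tests; about a fifth of its hits are not listed in these tables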;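 also: calls also rest on retests at 20 µM and on dose response follow-up; controls were probe without protein and protein plus probe with vehicle; some compounds called inactive have numbers as strong as hits; many hits fall short of the cut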
Target sequence (P11940 whole entry, looked up): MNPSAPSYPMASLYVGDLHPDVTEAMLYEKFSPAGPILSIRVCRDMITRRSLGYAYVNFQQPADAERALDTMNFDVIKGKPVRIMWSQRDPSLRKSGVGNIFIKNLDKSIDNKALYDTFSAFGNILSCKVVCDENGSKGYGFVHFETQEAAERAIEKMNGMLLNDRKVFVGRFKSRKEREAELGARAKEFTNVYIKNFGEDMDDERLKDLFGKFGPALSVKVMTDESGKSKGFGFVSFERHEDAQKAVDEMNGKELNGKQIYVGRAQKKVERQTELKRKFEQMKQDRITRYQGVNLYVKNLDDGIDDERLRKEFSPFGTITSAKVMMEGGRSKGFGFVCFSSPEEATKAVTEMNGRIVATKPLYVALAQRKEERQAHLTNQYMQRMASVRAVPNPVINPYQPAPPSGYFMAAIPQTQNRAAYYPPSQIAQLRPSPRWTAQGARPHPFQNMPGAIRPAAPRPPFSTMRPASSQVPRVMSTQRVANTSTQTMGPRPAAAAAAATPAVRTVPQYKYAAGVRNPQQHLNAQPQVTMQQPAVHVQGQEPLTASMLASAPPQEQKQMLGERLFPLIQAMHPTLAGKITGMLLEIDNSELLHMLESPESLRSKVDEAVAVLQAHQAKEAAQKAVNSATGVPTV
CSC inhib – blocks cancer stem cells; 300,000 tested, 1.1% active; inhibition, % at 7.5 µM; cancer stem cell-like cells viability, luminescence; AID 2717;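 active = mean at 75% or more and at least half the replicates too; tested in HMLE shEcad cells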;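 also: 0% = median of negative and 100% = median of positive control wells; the first replicate is given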
MT1-MMP act inh – blocks activation of human MT1-MMP. 360,000 tested, 0.061% active. P50281. AID 651647. HT1080 RFP-PRO-GFP cells, GFP/RFP ratio fluorescence, overnight; percent of plate control window, DMSO zero. GFP/RFP ratio change, % at 20 µM;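 active = GFP/RFP ratio change of at least 30% with cell ATP level not reduced by more than half and red fluorescence within 50% of control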; also: strong numbers were not always called active
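Material – HT1080 RFP-PRO-GFP cells · Control set – DMSO wells and RFP-L50D-GFP cells · Incubation – overnight cell settling, then overnight compound exposure, 37 °C, 5% CO2 · Compound dosing – single-point 20 µM compound, 1% DMSO · Read-out – GFP/RFP fluorescence ratio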
Rce1 inh – yeast Ras-converting enzyme inhibition; calls only; 290,000 tested, 0.27% active; yeast membranes, quenched prenylated peptide cleavage fluorescence; Q03530; AID 2563;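 active = fall in fluorescence gain of 50% or more versus controls, with final raw signal at or below 3038400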;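 also: plate controls were neutral control wells for no effect and wells lacking membranes for full effect; tested at 10 µM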
Env fusion inh – HIV envelope-mediated fusion inhibition; HeLa-JRFL Env/CEM21 cell fusion, luciferase; inhibition, % at 12.3 µM; 360,000 tested, 1.1% active; AID 651610;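 active = mean replicate inhibition score of at least 50 and every replicate individually at or above 50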;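 also: 0% = plate neutral controls and 100% = maraviroc near 300 nM; one replicate is shown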
eIF4H inh retest – recorded beside eIF4H inh, whose call it bears; inhibition, %; compound at 20 µM; confirmation average;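 mean of two retest wells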
PABP FP inh retest – second read-out of PABP FP inh, no call of its own (marks repeat the call); inhibition, %; compound at 20 µM; confirmation repeats;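 mean of two retest wells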
MT1-MMP act inh RFP – also measured in MT1-MMP act inh; calls as there; RFP signal change, %; measured here: RFP expression control read;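 0 = vehicle wells; hits needed this value within 50% of zero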
Active calls of the source: *; i = inactive; nt = no result given; + = active, no number. A portion of the library (hit frequency here may not be typical).

SMILES	UUG fidelity	eIF4H inh	PABP FP inh	CSC inhib	MT1-MMP act inh	MT1-MMP act inh RFP	Rce1 inh	Env fusion inh	others
Cc1nc(NCC2CCCO2)c2nnn(Cc3c(F)cccc3Cl)c2n1 (stereo not drawn)	-10.9	-9.5	-6.4	-3.1	3.5	-3.0	i	-6.2
O=C(Nc1ccc(Cl)cc1)C1c2cccc[n+]2CC(=O)N1Cc1ccc2c(c1)OCO2 (stereo not drawn)	-9.2	8.5	-8.7	-12.1	-7.1	-0.7	i	-7.9
CC12C(=O)N(NC(=O)c3ccncc3)C(=O)C1C1C=CC2C1 (stereo not drawn)	-1.9	3.1	-2.9	-23.5	1.2	6.6	i	nt
Cc1ncc(CN2CCC(N3CCC(C(=O)N4CCCC4)CC3)CC2)s1	-17.6	5.9	10.7	-1.0	-0.2	9.2	i	nt
CC(=O)c1c(C)[nH]c(C(=O)CN2C(=O)NC3(CCCCC3C)C2=O)c1C (stereo not drawn)	-4.4	nt	nt	nt	1.5	0.6	nt	-34.9
C=CCOC(=O)C(C#N)c1nc2ccccc2nc1N1CCN(c2ccccc2OC)CC1 (stereo not drawn)	-2.2	5.8	13.8	34.8	-7.3	-13.7	i	nt
COc1ccc(C)cc1S(=O)(=O)N(CC(=O)NC1CCCC1)c1ccc(F)cc1	3.4	-1.0	-14.6	-3.3	5.1	1.5	i	24.2
Cc1nc(CCNC(=O)c2cccs2)cs1	-22.2	2.8	7.6	-5.9	6.6	5.8	i	nt
Cc1ccc(NC(=O)CN(C)C(=O)Cn2nnc(-c3ccccc3C)n2)cc1	-6.1	nt	nt	-9.2	-0.5	0.3	nt	1.3
COC(CNC(=O)Cn1nc(Cc2ccncc2)c2ccccc2c1=O)OC	-50.1	-11.2	-5.2	-12.1	-5.5	1.1	i	-12.9
O=C(NCc1ccccn1)C1Nc2ccc(OC(F)(F)F)cc2C2C=CCC12 (stereo not drawn)	-21.2	nt	nt	1.1	7.0	-5.2	i	20.5
CCOc1cccc(C(c2c(C)n(C)n(-c3ccccc3)c2=O)c2c(C)n(C)n(-c3ccccc3)c2=O)c1OC	15.8	0.4	-0.6	-22.2	-0.7	2.8	i	-155.4
O=C(Nc1ccc(N2CCOCC2)c(Cl)c1)c1ncn[nH]1	-34.4	-9.4	-3.6	-10.6	-4.7	-2.4	i	nt
O=C(Nc1cccc2ccccc12)c1ccc(OC(=S)N2CCOCC2)cc1	-17.5	-0.3	8.6	48.1	12.5	-12.3	+	24.7
COc1ccccc1N1CC(C(=O)OCC(=O)Nc2c(C)cccc2C)CC1=O (stereo not drawn)	-7.7	1.6	1.1	-11.9	1.8	1.6	nt	15.8

The list goes on; it opens with the two that closed the last part.
SMILES	UUG fidelity	eIF4H inh	PABP FP inh	CSC inhib	MT1-MMP act inh	MT1-MMP act inh RFP	Rce1 inh	Env fusion inh	others
O=C(Nc1cccc2ccccc12)c1ccc(OC(=S)N2CCOCC2)cc1	-17.5	-0.3	8.6	48.1	12.5	-12.3	+	24.7
COc1ccccc1N1CC(C(=O)OCC(=O)Nc2c(C)cccc2C)CC1=O (stereo not drawn)	-7.7	1.6	1.1	-11.9	1.8	1.6	nt	15.8
O=C(OC1CCOC1=O)c1ccc(CO)cc1 (stereo not drawn)	-9.0	-13.2	-12.3	-13.1	3.7	6.6	i	-30.0
Cc1nn(-c2ccccc2)c(C)c1C(=O)OCC(=O)NC12CC3CC(CC(C3)C1)C2	-15.3	-11.3	1.0	38.3	-3.4	-6.1	i	nt
C=CCN1C(=O)c2ccc(C(=O)N(CCC)CC(=O)Nc3ccccc3C)cc2C1=O	12.6	nt	nt	1.1	-0.4	2.9	i	0.9
COC(=O)CN1C(=O)N(c2ccccc2)C(N(O)C(=O)Nc2ccccc2)C1(C)C (stereo not drawn)	-5.9	-9.0	-11.5	-13.0	4.5	8.2	i	-39.3
NS(=O)(=O)c1ccc(N2CCCC2=O)c([N+](=O)[O-])c1	nt	-1.1	6.6	-8.4	-6.9	0.9	i	-2.7
COCCN(CCOC)S(=O)(=O)c1ccc(NC(=O)c2cnccn2)cc1	-8.3	2.5	5.1	nt	-3.1	2.8	i	-10.9
O=C(NC1CC1)c1nc2c(nnn2Cc2ccccc2Cl)c(=O)[nH]1	-2.1	3.0	-7.2	-3.0	5.6	-0.3	i	nt
Cc1oc(-c2ccccc2Cl)nc1CN1CCCC1c1ccc(F)cc1 (stereo not drawn)	nt	-4.8	-9.7	3.6	-5.0	1.8	i	9.1
CC1(NC(=O)C2CCCCC2)CCS(=O)(=O)C1 (stereo not drawn)	nt	-4.4	-1.3	0.4	-4.8	2.6	i	-4.2
CCN(CC(=O)NCc1ccc(Cl)cc1)C(=O)c1cnc(Cl)c(Cl)c1	10.7	-6.1	4.3	-0.6	-4.0	-4.4	i	0.2
Cc1nc(N)sc1C(=O)N/N=C/c1ccco1	1.2	-5.0	6.9	-16.5	0.9	4.4	i	-22.4
CCOC(=O)c1c(C)[nH]c(C(=O)OCc2csc(CC(=O)Nc3ccccc3C)n2)c1C	nt	nt	nt	-4.3	-4.6	-9.3	i	9.1
CC(C)n1nnnc1SCC(=O)N1CCN(Cc2ccc3c(c2)OCCO3)CC1	-20.2	nt	nt	-13.2	3.8	1.1	nt	-15.3
CC(C)CCNC(=O)C(C)N(C(=O)Cn1nnc(-c2ccc(F)cc2)n1)C1CCCC1 (stereo not drawn)	nt	6.2	1.3	-9.8	0.4	-2.4	i	nt
COCCCNC(=O)c1csc([C@H]2C[C@H](O)[C@@H](CO)O2)n1	2.7	nt	nt	nt	1.4	5.4	nt	-15.2
CCOC(=O)C1(Cc2ccccc2)CCN(Cc2ccc(C)s2)CC1	nt	-5.8	-1.6	7.2	-0.4	-4.4	i	5.0
CC1(C)C[C@H]2C3=CCC4[C@@]5(C)CC[C@H](O[C@@H]6O[C@H](C(=O)O)[C@@H](O)[C@H](O)[C@H]6O)[C@@](C)(CO)C5CC[C@@]4(C)[C@]3(C)C[C@H](O)[C@@]2(CO)[C@@H](O)[C@@H]1O (stereo partly drawn)	2.5	nt	nt	-7.2	6.0	1.8	nt	-9.1
COc1ccc2c(c1)O[C@@H](c1cccc(C(F)(F)F)c1)[C@H](O)C2=O	nt	1.9	11.8	15.3	nt	nt	i	nt
O=C(Nc1cccc(-c2nc3ccccc3s2)c1)c1cc(=O)c2ccccc2o1	nt	4.8	-1.0	-7.5	11.6	8.8	i	10.9
Cc1nn(C(C)(C)C)c(OC(=O)c2ccc3c(c2)OCO3)c1S(=O)(=O)c1ccccc1	-11.3	-14.9	-4.5	nt	2.3	-1.7	i	nt
COc1cccc(C(=O)OCCN2CCCCC2)c1	-30.5	7.2	12.2	-1.7	3.0	0.1	i	nt
Cc1ccc(C(=O)NCC(=O)O)cc1S(=O)(=O)N1CCCCC1	-2.5	1.1	9.4	-0.9	5.5	3.6	i	18.8
CCc1nnc(NC(=O)CSc2nc3c(c(=O)n2-c2ccccc2OC)SCC3)s1	-8.9	6.1	6.5	31.3	-0.7	-1.2	nt	nt
Cc1cc2cc(CNC(=O)c3ccc(S(=O)(=O)N4CCOCC4)cc3)ccc2[nH]1	-3.5	9.7	3.0	11.1	9.0	13.9	i	-11.2
CC(OC(=O)c1ccc2ncsc2c1)C(=O)Nc1ncc(Cl)cc1Cl (stereo not drawn)	nt	-2.7	0.4	-10.0	-2.7	-3.5	i	22.7
COc1ccc(CNC(=O)C2CCN(S(=O)(=O)c3cc(OC)ccc3OC)CC2)cc1	-0.5	0.7	-4.7	nt	-2.4	-1.8	nt	nt
Cc1c(Cl)cccc1NC(=O)c1ccc(-n2ccnc2)nc1	nt	7.1	-4.0	0.6	3.0	3.5	i	-91.9
CSc1nnc(C)c(=O)n1COC(=O)c1ccc([N+](=O)[O-])cc1	nt	2.1	-6.0	-2.2	1.5	1.5	i	12.8
CCOc1ccccc1CN1CCN(Cc2c[nH]c3ccccc23)CC1CCO (stereo not drawn)	-17.0	-0.9	-1.3	-8.9	1.6	3.5	i	-1.2
COc1ccc(C(O)P(=O)(OC2CCCCC2)c2ccc(N(C)C)cc2)cc1OC (stereo not drawn)	-14.3	-4.3	-8.4	-5.9	-2.4	1.9	i	19.0
CC(=O)c1cccc(NC(=O)C2Cc3c(-c4cccc(C(N)=O)c4)ccnc3O2)c1 (stereo not drawn)	1.6	nt	nt	nt	-0.9	-17.9	nt	12.5
CCC(C)n1c(C)nc2c(c1=O)c1nc3ccccc3nc1n2CCC1=CCCCC1 (stereo not drawn)	-21.8	-16.0	-4.2	18.4	-9.1	-14.1	i	-45.7
Cc1ccc(C(=O)N2CCN=C2SCc2ccc([N+](=O)[O-])cc2)cc1	nt	-1.7	18.8	1.9	3.5	4.8	i	9.1
COc1cc(C(=O)Nc2ccc(NC(C)=O)cc2)ccc1OCc1ccccc1	nt	-2.1	3.9	-5.2	-2.8	6.4	i	5.4
COc1ccc(OC)c(S(=O)(=O)N/N=C(/C)c2ccc3c(c2)OCO3)c1	-13.0	-9.1	-12.4	-13.3	-1.6	1.2	i	4.7
CCn1c(SCC(=O)Nc2ccc(OC)cc2)nnc1-c1ccco1	-16.9	-1.2	0.4	10.8	2.8	3.4	i	nt
COc1ccc(Br)cc1C(=O)Nc1ccc(N2CCN(S(C)(=O)=O)CC2)cc1	-28.8	-0.3	5.5	3.9	1.7	-5.1	i	-87.6
COc1ccc(C)cc1NC(=O)CSCc1cc(=O)n2c(C)csc2n1	-1.4	nt	nt	nt	-3.8	1.9	nt	9.2
CCCCCCNS(=O)(=O)c1nc2nc(C)cc(C)n2n1	-12.0	3.2	-4.4	-5.7	4.7	1.2	i	-1.0
COc1ccc(C(=O)Cn2cnc3ccccc3c2=O)cc1OC	22.9	0.2	4.4	-7.4	-1.7	2.3	i	1.4
Cc1cc(=O)[nH]c(N/N=C/c2ccc(Br)s2)n1	-14.0	-1.6	0.4	3.1	-1.7	3.3	i	-40.6
CCn1nnnc1SCC(=O)c1ccc(C)cc1	-20.0	1.1	9.1	nt	1.6	3.7	i	-35.0
NCCc1nc(-c2ccccc2)cs1	-11.0	-17.7	73.3	-26.2	-48.8	-3.2	i	-5.4	eIF4H inh retest=-0.3;PABP FP inh retest=-2.3
CCN(C1CCCCC1)S(=O)(=O)CCNC(=O)c1ccccc1	0.3	nt	nt	-2.5	2.3	-0.1	i	-8.3
CCc1ccc(N(C(=O)C(F)(F)F)C(C(=O)NC2CCCCC2)c2ccncc2)cc1 (stereo not drawn)	-6.0	-9.1	-2.4	-3.2	-2.8	-2.7	i	8.3
Cc1nc2c3ccccc3n(CC#N)c(=O)n2n1	-1.0	-11.4	19.4	-3.9	1.3	6.4	i	-18.0
Cc1ccc(NC(=O)CNc2ccc(Cl)cc2F)cc1	nt	-2.7	-0.3	2.0	0.4	-1.8	i	-10.3
Cc1cccc(N2C(=O)CC(Cn3nc(C)cc3C)C2=O)c1 (stereo not drawn)	-14.4	6.2	3.3	-4.6	-1.0	5.5	i	9.9
CCn1c(C)nc2cc(C(=O)NNC(=S)NC(=O)c3ccc(OC)cc3)ccc21	-27.6	11.2	-2.8	2.1	5.7	4.1	i	20.3
COc1ccc(OCC(=O)NC(CC(=O)O)c2ccc(OC)c(OC)c2)cc1 (stereo not drawn)	2.0	-7.6	-14.2	6.7	0.7	0.9	i	10.7
